Bioassay records as filed in PubChem.
Arbovirus anti: blocks arbovirus infection; arbovirus infection cell-based antiviral screen; inhibition, % at 10 µM; AID 1251; 200,000 compounds, 0.37% hits;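 active means inhibition from about 30%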;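 further: bluetongue infection of BSR cells; cell survival read as ATP light after 72 h; 0% = infected wells without compound and 100% = uninfected wells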
RecA splice inh: blocks M. tuberculosis RecA intein splicing | P9WHJ3 | cell-free RecA intein splicing, fluorescence | inhibition, %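 (about 9 µM by stock and volumes)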 | 290,000 compounds, 0.75% hits; in the data active means inhibition above about 30%; inconclusive means no clear call, values can overlap the other calls;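 further: 0% = vehicle wells and 100% = reference inhibitor control wells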
Target sequence (P9WHJ3 whole entry, looked up, canonical isoform): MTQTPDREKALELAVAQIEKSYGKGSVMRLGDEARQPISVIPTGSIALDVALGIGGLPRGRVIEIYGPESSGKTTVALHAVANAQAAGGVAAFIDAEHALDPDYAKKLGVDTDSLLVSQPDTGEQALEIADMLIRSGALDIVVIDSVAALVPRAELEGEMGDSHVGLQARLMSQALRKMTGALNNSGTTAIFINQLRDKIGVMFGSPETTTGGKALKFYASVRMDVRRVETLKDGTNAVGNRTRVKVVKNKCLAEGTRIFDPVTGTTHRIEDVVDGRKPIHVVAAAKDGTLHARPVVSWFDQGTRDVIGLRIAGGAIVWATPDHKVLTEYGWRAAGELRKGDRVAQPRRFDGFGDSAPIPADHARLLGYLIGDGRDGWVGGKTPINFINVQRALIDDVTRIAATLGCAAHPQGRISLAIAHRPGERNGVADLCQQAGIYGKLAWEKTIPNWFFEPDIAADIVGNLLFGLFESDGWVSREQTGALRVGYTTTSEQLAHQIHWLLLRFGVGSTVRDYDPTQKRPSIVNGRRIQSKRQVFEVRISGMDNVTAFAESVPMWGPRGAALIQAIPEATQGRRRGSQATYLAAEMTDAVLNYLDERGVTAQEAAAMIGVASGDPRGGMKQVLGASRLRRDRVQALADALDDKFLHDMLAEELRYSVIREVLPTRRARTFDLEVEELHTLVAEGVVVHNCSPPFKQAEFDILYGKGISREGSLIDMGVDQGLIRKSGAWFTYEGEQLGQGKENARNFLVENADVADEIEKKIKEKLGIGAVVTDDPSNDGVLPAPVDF
Mtb betalactam: beta-lactam sensitization of Mtb H37Rv | inhibition, % at 25 µM | 330,000 compounds, 0.27% hits | AID 434955 | M. tuberculosis H37Rv growth with meropenem, percent inhibition; hits of this screen are not shown here;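 active means about 74% or more and at least 40 points above the plate without the antibiotic, then above 30% in a dose series; inconclusive means first-round hits that could not be retested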;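 further: growth measured after seven days incubation then overnight dye step; 0% = bacteria only wells and 100% = bacteria with antibiotic; twin plates without the antibiotic show which effects depend on it; some results filed as inactive read as strong as hits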
Mtb H37Rv: M. tuberculosis H37Rv growth inhibitors, H37Rv strain (AID 1626). M. tuberculosis H37Rv growth inhibition; higher % means a stronger effect. inhibition, % at 10 µM, or IC50 in µM where a hit was titrated. 220,000 compounds, 0.95% hits;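 active means confirmed in a dose series; inconclusive means inhibition above 80% but not taken into the dose series; inactive means below 80% or under 30% at every dose of the series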;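 further: bacteria incubated seven days before Alamar blue readout; 0% = bacteria only wells and 100% = bacteria with antibiotic wells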
YopH inh: YopH (Yersinia) phosphatase inhibition; fluorescence Ex485/Em525; inhibition, %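 (about 10 µM by stock and volumes)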; 140,000 compounds, 0.16% hits;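 active means inhibition of 50% or more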;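 further: controls were vehicle for no effect and minimum signal wells for full effect; inactives centre near -20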
Arbovirus anti repeat: further read-out of Arbovirus anti, marked with its call; inhibition, %; measured here: 10K subset replicate screen; many hits read low in the repeat;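 first of two repeat runs on a subset; 0% = infected and 100% = uninfected wells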
* = called active by the depositor; ? = inconclusive; / = no result given.

SMILES	Arbovirus anti	RecA splice inh	Mtb betalactam	Mtb H37Rv	YopH inh	others
CCOC(=O)c1c(NCCN(C)C)c2ccccc2[nH]c1=O	/	0.0	-10	-11%	/
COC(=O)C1CCN(C(=O)Cn2nnc(-c3ccccc3)n2)CC1	/	-0.7	-7	/	/
Cc1ccc([N+](=O)[O-])c(NC2OC(CO)C(O)C2O)c1 (configuration not stated)	0	-0.4	-12	-5%	/
CC(NC(=O)COC(=O)/C=C/c1ccco1)c1ccccc1 (configuration not stated)	3	4.3	-2	0%	/
COc1cc2c(c(OC)c1OC)-c1ccc(C(=O)O)cc1[C@@H](NC(C)=O)CC2	/	-2.0	1	-10%	/
COC(=O)c1ccc(NC(=O)CN2CCN(c3ccccn3)CC2)cc1	-4	-1.6	1	-2%	/
O=Cc1ccc(-c2cc(Cl)ccc2Cl)[nH]1	5	8.7	7	?	/
O=[N+]([O-])/C(C(Cl)=C(Cl)Cl)=C(\Nc1ccc(F)cc1)n1cncn1	-25	9.9	-1	77%	-25
CSCc1ccc(C(=O)NC2CC(C)(C)Cc3c2cnn3-c2ccc(F)cc2)o1 (configuration not stated)	/	10	4	/	/
Cc1cc(-n2cnnn2)cc(C)c1S(=O)(=O)NCCOc1ccccc1	/	-0.7	-7	/	/
CCOC(=O)c1ccc(N/C=C\C(=O)c2cccc(OC)c2)cc1	-27	-23	89	95%	3
COc1ccc(N2C(=NC(=O)C3CCCCC3)SC3CS(=O)(=O)CC32)cc1 (configuration not stated)	/	2.0	1	/	/
CCc1cc(=O)oc2cc(OCc3nn[nH]n3)ccc12	-9	1.5	-1	-16%	-36
CCCCC/C=N\NC(=O)Cc1ccc([N+](=O)[O-])cc1	6	-4.9	-3	-4%	-22
Cn1c(=O)c2c(SCC(=O)N3CCCC3)nc(CC(C)(C)C)nc2n(C)c1=O	/	0.5	-9	/	/
CCOC(=O)c1c(NC(=S)NCC2CCCO2)sc(C)c1C (configuration not stated)	24	-7.7	-6	1%	/
CN(C)C1=C(C#N)C(c2ccccc2)=NP(N(C)C)(N(C)C)=N1	6	-0.8	-7	-4%	-10
N[C@H](CSCc1ccccc1)C(=O)Nc1ccc([N+](=O)[O-])cc1	/	-1.4	47	/	/
COc1ccccc1N1CCN(C(=O)NC23CC4CC(CC(C4)C2)C3)CC1	-8	1.1	4	10%	/
Cc1cc(NC(=O)CCOc2ccc(F)cc2)no1	/	-8.3	/	-4%	/
Fc1cccc(NC(=S)NCc2ccccn2)c1	0	-1.4	-5	7%	4
O=C(CC1C(=O)NCCN1Cc1ccc(Cl)c(F)c1)NCC1CCOCC1 (configuration not stated)	/	0.5	-4	-4%	/
Nc1ccc(S(=O)(=O)N2CCCc3ccccc32)cc1	-10	/	-4	0%	-25	Arbovirus anti repeat=-9
COc1cc2c(cc1OC)[C@H](Cc1ccc(O)cc1)NCC2	-1	0.4	-11	-12%	-26
Cc1c(NC(=O)C2(C)CCCCC2)c(=O)n(-c2ccccc2)n1C	7	-1.3	-12	-4%	-17
CCn1c(SCC(=O)O)nc2sc3c(c2c1=O)CCC3	13	3.7	-3	-4%	-7
CS(=O)(=O)N(CC(=O)Nc1ccccc1C(=O)N1CCOCC1)c1cccc(F)c1	/	1.4	-9	/	/
Cc1c(N2C(=O)CS/C2=N\N=C\c2ccc(Cl)cc2)c(=O)n(-c2ccccc2)n1C	-8	-1.9	?	-6%	-17
O=C(NC(c1ccccc1)c1ccccc1)N1CCN(CCO)CC1	8	0.5	-14	-9%	-18
Cc1ccc(N2CC(=O)Nc3c(sc4nc(C)cc(C)c34)C2=O)cc1	/	1.2	23	0%	/
Cc1n[nH]c(=O)c2c(NC(=O)COC(=O)c3cc(F)cc(F)c3)oc(C)c12	/	2.0	-5	/	/
O=C(Nc1ccc(F)c(F)c1)c1ccc(F)c(S(=O)(=O)N2CCC3(CC2)OCCO3)c1	-20	-0.6	-3	-4%	/
Cc1nc(-c2nnc(SCC(=O)Nc3cc(C(F)(F)F)cc(C(F)(F)F)c3)n2C)cs1	/	0.4	1	-2%	/
O=C(COc1ccc2c(C(F)(F)F)cc(=O)oc2c1)NCc1cccs1	8	-36	100	15µM*	-23
CCOCCCNC(=S)N1C2CCC1CC(NC(=O)Nc1ccc(C(=O)OCC)cc1)C2 (configuration not stated)	-2	-2.5	7	8%	/
COC(=O)C1=C(C)OC(N)=C(C#N)C1c1cc(OC)ccc1OC (configuration not stated)	-3	-1.8	-2	-7%	-56
Cc1ccc(NC(=O)C2=C(c3ccccc3)S(=O)(=O)CCS2(=O)=O)cc1	-31	94*	7	8%	/
CC1CCC(C(C)C)C(OCC(O)CN2CCOCC2)C1 (configuration not stated)	7	1.2	-2	2%	5
COc1ccc(OC)c(C(=O)N2CCC(CCC(=O)NC3CC3)CC2)c1	/	-1.2	-6	/	/
COC(=O)C1=C(C)Nc2ncnn2C1c1ccc(OCc2ccccc2)cc1 (configuration not stated)	12	-3.7	-9	-15%	-18
Cc1ccc(Cn2c(C(C)Nc3nc(-c4ccc(F)cc4)cs3)nc3cc(C(F)(F)F)ccc32)cc1 (configuration not stated)	/	1.1	-1	-9%	/
CCO[C@@H]1OC(C(=O)N2CCCCCCC2)=C[C@H](C2CCCCC2)[C@H]1CCCO	-12	1.5	-5	/	/
Cc1ccc(S(=O)(=O)n2nc(OC(=O)C3CCCCC3)cc2N)cc1	-2	15	2	9%	-51
CC(CN1CCOCC1)OC(=O)c1ccc(C(C)(C)C)cc1 (configuration not stated)	/	0.5	6	/	/
COc1ccccc1N1CCN(C(=O)Cn2cnc3c2c(=O)n(C)c(=O)n3C)CC1	/	1.6	2	17%	/
CCCc1cc(C(=O)NC2CCCC2)no1	0	-0.5	0	10%	-6	Arbovirus anti repeat=1
COc1cccc(CNC(=O)C(=O)NCC2OCCCN2S(=O)(=O)c2cc(C)ccc2C)c1 (configuration not stated)	/	4.8	-5	/	/
O=C(NN=C1C2CC3CC(C2)CC1C3)c1cccc(S(=O)(=O)N2CCOCC2)c1	6	3.4	0	1%	-20
CCSc1nc(-c2ccccc2)c2cc(Cl)ccc2n1	-15	-0.8	-2	-1%	-6
CCN(CC)c1nc(-c2ccccn2)nc(-c2ccccc2)c1C#N	-16	4.6	94	51%	/
CCOC(=O)CCc1c(C)nc2c(c(C)nn2C(C)(C)C)c1C	13	11	-1	8%	-36
COc1cccc(-c2cc(C(F)(F)F)nc(-n3cc(C)cn3)n2)c1	0	-9.5	6	8%	/
Cn1nnnc1Sc1ccc(C(=O)O)cc1[N+](=O)[O-]	/	-0.7	-5	-10%	/
COC(=O)c1cc(C)cc(=O)o1	/	3.0	3	-8%	/
COC(=O)CNC(=O)COC(=O)c1ccc(OC)c([N+](=O)[O-])c1	1	-1.6	11	-3%	-46
COc1ccc(C(=O)Nc2nnc(S(=O)(=O)N(C)Cc3ccccc3)s2)cc1	/	-1.7	10	/	/
Cc1ccc2nc(NC(=O)C(NS(=O)(=O)c3cccc4nsnc34)C(C)C)sc2c1 (configuration not stated)	-24	10	3	12%	-36
O=C(OCn1nnc2ccccc2c1=O)c1cccnc1	-3	-11	2	-2%	-33
C[C@]12CCC(=O)C=C1C=C[C@@H]1[C@@H]2CC[C@@]2(C)[C@H]1CC[C@@]21CCC(=O)O1	/	-2.8	-5	/	/
C[C@]12CC[C@@H](O)C[C@@H]1CC[C@@H]1[C@@H]2CC[C@]2(C)C(=O)CC[C@@H]12	1	-0.8	2	2%	/
(continued)
SMILES	Arbovirus anti	RecA splice inh	Mtb betalactam	Mtb H37Rv	YopH inh	others
CCCn1cnc2cc(NC(=O)c3cccs3)ccc21	4	1.0	-8	11%	/
CCN(CC)S(=O)(=O)c1ccc(N)cc1	1	4.6	1	-3%	/
CN1C(=O)c2ccc(C(=O)Nc3cccnc3)cc2C1=O	/	-1.0	-3	/	/
O=C(Nc1ccnn1C1CCN(Cc2cccc(OCCO)c2)CC1)c1cccc(F)c1	/	3.1	?	/	/
Cc1ccc(N/C=C/C(=O)c2ccccc2)cc1C	-3	0.7	10	54%	-19
O=C(NCc1ccco1)C(=O)NCc1ccccc1Cl	-4	2.5	2	0%	-16
CCn1c(SCC(=O)NC(=O)c2ccccc2OC)nc2ccccc21	/	0.2	-18	/	/
Cc1nnc2c3ccccc3c(-c3cccs3)nn12	-14	-0.9	-5	-7%	/
COc1ccccc1/C=C/C(=O)NCc1cccnc1	0	0.9	3	1%	/
COc1ccc(OC)c(NC(=O)c2ccc(-c3cccs3)cc2)c1	-1	19	19	8%	/
O=c1[nH]c(S)nc2sc3c(c12)CCCC3	-5	0.5	-4	1%	/
CCCc1[nH]nc2c1C(c1ccoc1)C(C#N)=C(N)O2 (configuration not stated)	3	61*	4	0%	-18
CC(C)CN(CC(C)C)CC(O)COc1ccc([N+](=O)[O-])cc1 (configuration not stated)	13	-1.2	10	6%	-9
COc1cccc2c(C)c(C(=O)O)[nH]c12	0	-4.5	-5	-8%	-23
O=C(Nc1ccc(F)cc1)Nc1cnccn1	/	-0.3	-7	/	/
CNC(=O)Nc1ccc(S(N)(=O)=O)cc1	/	-1.5	3	-5%	/

Fetched one by one from above (2):
SMILES	Arbovirus anti	RecA splice inh	Mtb betalactam	Mtb H37Rv	YopH inh	others
O=C(Nc1ccnn1C1CCN(Cc2cccc(OCCO)c2)CC1)c1cccc(F)c1	/	3.1	?	/	/
Cc1ccc(N/C=C/C(=O)c2ccccc2)cc1C	-3	0.7	10	54%	-19

Grouped by structure, those above with a halogen (18)
SMILES	Arbovirus anti	RecA splice inh	Mtb betalactam	Mtb H37Rv	YopH inh	others
O=Cc1ccc(-c2cc(Cl)ccc2Cl)[nH]1	5	8.7	7	?	/
O=[N+]([O-])/C(C(Cl)=C(Cl)Cl)=C(\Nc1ccc(F)cc1)n1cncn1	-25	9.9	-1	77%	-25
CSCc1ccc(C(=O)NC2CC(C)(C)Cc3c2cnn3-c2ccc(F)cc2)o1 (configuration not stated)	/	10	4	/	/
Cc1cc(NC(=O)CCOc2ccc(F)cc2)no1	/	-8.3	/	-4%	/
Fc1cccc(NC(=S)NCc2ccccn2)c1	0	-1.4	-5	7%	4
O=C(CC1C(=O)NCCN1Cc1ccc(Cl)c(F)c1)NCC1CCOCC1 (configuration not stated)	/	0.5	-4	-4%	/
CS(=O)(=O)N(CC(=O)Nc1ccccc1C(=O)N1CCOCC1)c1cccc(F)c1	/	1.4	-9	/	/
Cc1c(N2C(=O)CS/C2=N\N=C\c2ccc(Cl)cc2)c(=O)n(-c2ccccc2)n1C	-8	-1.9	?	-6%	-17
Cc1n[nH]c(=O)c2c(NC(=O)COC(=O)c3cc(F)cc(F)c3)oc(C)c12	/	2.0	-5	/	/
O=C(Nc1ccc(F)c(F)c1)c1ccc(F)c(S(=O)(=O)N2CCC3(CC2)OCCO3)c1	-20	-0.6	-3	-4%	/
Cc1nc(-c2nnc(SCC(=O)Nc3cc(C(F)(F)F)cc(C(F)(F)F)c3)n2C)cs1	/	0.4	1	-2%	/
O=C(COc1ccc2c(C(F)(F)F)cc(=O)oc2c1)NCc1cccs1	8	-36	100	15µM*	-23
Cc1ccc(Cn2c(C(C)Nc3nc(-c4ccc(F)cc4)cs3)nc3cc(C(F)(F)F)ccc32)cc1 (configuration not stated)	/	1.1	-1	-9%	/
CCSc1nc(-c2ccccc2)c2cc(Cl)ccc2n1	-15	-0.8	-2	-1%	-6
COc1cccc(-c2cc(C(F)(F)F)nc(-n3cc(C)cn3)n2)c1	0	-9.5	6	8%	/
O=C(Nc1ccnn1C1CCN(Cc2cccc(OCCO)c2)CC1)c1cccc(F)c1	/	3.1	?	/	/
O=C(NCc1ccco1)C(=O)NCc1ccccc1Cl	-4	2.5	2	0%	-16
O=C(Nc1ccc(F)cc1)Nc1cnccn1	/	-0.3	-7	/	/

This is a subset; the hit share may differ from the screen's.
